HSD17B inhib: blocks hydroxysteroid 17-beta dehydrogenase activity | Q99714 | AID 893 | recombinant HSD17B10, NADH fluorescence kinetic; many of its hits are not listed in these tables | Potency, µM (doses to about 57.1 µM), without a hit: at the top dose activity change, negative = inhibition, actives largely listed as inhibitors | 75,000 tested, 7.6% active; active = well fitted inhibition curve with a large enough effect; inconclusive = small, poorly fitted or top-dose-only effect; inactive = no such curve, though single readings can be large or run the other way;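 note: the protocol describes HADH2 (HSD17B10) and not the HSD17B4 of the title; nearly all actives have a fitted effect of over 70% in size; most hits overshoot -100% by far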
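Enzyme plus compound, 15 min room temperature; substrate mix added (NAD+ 1 mM, beta-hydroxybutyryl-CoA 90 uM final); plates read kinetically for NADH fluorescence. HADH2 was His-tagged, E. coli-derived, 20 nM.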
* hit, by the source's call; ? = inconclusive; [ ] = remark or other dose. % is set by controls: 0 for no effect and ±100 for the full control effect; potency is the fitted concentration of half-maximal effect.

Compound | HSD17B inhib
Cc1nc2ccccc2c(=O)n1/N=C/c1ccccn1 | 5.2%
c1cncc(CNc2c3c(nc4nnnn24)CCCC3)c1 | 0.7%
CCOC(=O)c1nnn(-c2nonc2N)c1CSc1ccc(C)cc1 | -20.3%
Cn1c(=O)c2c(nc(Br)n2Cc2ccccc2Cl)n(C)c1=O | 5.8%
O=C(Nc1nc2c(s1)CCc1ccccc1-2)c1cccs1 | -13.5%
COc1ccc(N2C(C)=CS/C2=C(/C#N)c2nnc(N3CCOCC3)n2-c2ccccc2)cc1 | 2.6%
O=C(NCCc1c[nH]c2ccccc12)c1c(Cl)nc2sccn12 | 4.5%
COc1ccc(S(=O)(=O)NC2CCCCC2)c(C)c1C | -5.4%
O=C(CSCCc1ccccn1)Nc1ccccn1 | 2.2%
Cc1cc(C)c2c(C)nn(C3CCCCC3)c2n1 | ?
CC1=C(C)CC2C(=O)N(c3cccc4ccccc34)C(=O)C2C1 (stereo not drawn) | -27.7%
Cc1ccc(CN2CCNC(=O)C2CC(=O)O)o1 (stereo not drawn) | 9.4%
CCOC(=O)Cc1csc(NC(=O)CSc2nnc(-c3ccncc3)n2Cc2ccco2)n1 | -5.9%
Cc1ccc(Nc2nc(Oc3ccc(=O)[nH]n3)nc(N(C)C)n2)cc1 | -13.9%
Nc1ccc(N)c(Cl)c1 | -5.9%
Cc1cc(C)cc(N(CC(=O)NCc2ccc3c(c2)OCO3)C(=O)CCC(=O)Nc2ccccn2)c1 | 4.6%
CCCCN=C(C)C1=C(O)CSC1=O | 15.7%
O=C(O)C1C2CCCCC2=C2CCCCC2C1C(=O)O (stereo not drawn) | -1.7%
Oc1c(Cl)cc(Cl)c2cccnc12 | -12.0%
COc1ccc(N2C(=O)CC(Sc3ncn[nH]3)C2=O)c(OC)c1 (stereo not drawn) | ?
CCc1nccn1S(=O)(=O)c1ccc2ccc(C)cc2c1 | 6.2%
O=C(CCN1CCN(Cc2ccccc2)CC1)Nc1cccc(Cl)c1 | 5.6%
CN1C(=O)C2(Nc3ccccc3-c3nc4ccccc4n32)c2ccccc21 (stereo not drawn) | -17.7%
Cc1sc2c(c1C)c(=O)n(-c1ccccc1)c1nnc(C)n21 | 7.7%
COc1ccc(OC)c(-c2cc(C(=O)Nc3cc(C)on3)no2)c1 | 25.1µM*

The list goes on; it opens with the 4 that closed the last part.
Compound | HSD17B inhib
O=C(CCN1CCN(Cc2ccccc2)CC1)Nc1cccc(Cl)c1 | 5.6%
CN1C(=O)C2(Nc3ccccc3-c3nc4ccccc4n32)c2ccccc21 (stereo not drawn) | -17.7%
Cc1sc2c(c1C)c(=O)n(-c1ccccc1)c1nnc(C)n21 | 7.7%
COc1ccc(OC)c(-c2cc(C(=O)Nc3cc(C)on3)no2)c1 | 25.1µM*
O=C(O)c1c2c(nc3ccc(S(=O)(=O)N4CCC(C(=O)N5CCCCC5)CC4)cc13)CCCC2 | -4.4%
CNC(=O)CN(c1cccc(Br)c1)S(C)(=O)=O | 17.3%
CCOc1ccc(S(=O)(=O)NCc2ccco2)c2ccccc12 | -11.5%
O=C(NCc1ccco1)C(Cc1ccccc1)N1C(=O)C2C3C=CC(C3)C2C1=O (stereo not drawn) | -12.0%
O=C(CCc1ccccc1)Nc1c(F)c(F)c(F)c(F)c1F | -4.2%
O=C(CSCC(=O)Nc1nccs1)Nc1ccccc1 | -7.0%
CCC(=O)N1CCN(c2ccccc2NC(=O)COc2cc(C)ccc2C(C)C)CC1 | -6.0%
CC(C)CCOc1ccc(C(=O)NCCC(=O)N2CCOCC2)cc1 | -3.1%
Clc1cc(Cl)c(OCc2nc(-c3ccccn3)no2)cc1Cl | 6.8%
CN1C[C@@H]2C(c3ccc(C(F)(F)F)cc3)C3(c4cccnc4)CC2(C3)[C@H]1c1ccccc1 (stereo partly drawn) | 8.4%
C/C(CCN1CCCc2nc(C)c(C)cc21)=N\O[C@@H](C)c1cn([C@H](CO)Cc2ccccc2)nn1 | 3.98µM*
COCCCN(C(=O)c1ccco1)c1nc(-c2cc(OC)ccc2OC)cs1 | 200.1%[activator]
O=C(O)CCC(=O)Nc1nc(-c2ccccc2)cs1 | 12.8%
S=c1[nH]nc(-c2ccccc2)n1C1C=CCCC1 (stereo not drawn) | -14.7%
COC(=O)c1cc(=O)n(Cc2cccs2)c(=NCc2cccs2)s1 | -6.5%
CN1CCN(C(=O)CN(c2cccc(Cl)c2)S(=O)(=O)c2ccccc2)CC1 | 7.5%
CC(C)CNC(=O)NC1C(NC(=O)NCC(C)C)N(C)C(=O)N1C (stereo not drawn) | ?
COc1ccc(-c2ccc(-c3noc(C)n3)c(OC)n2)cc1 | 25.1µM*
CCOC(=O)C(NC(=O)Nc1cccc(C)n1)(OCC(F)(F)F)C(F)(F)F (stereo not drawn) | -7.6%
O=c1c2ccccc2nc(SCc2cn3ccsc3n2)n1-c1ccccc1 | 3.0%
CCCCOC(=O)CSc1nc(N)c(C#N)c(-c2ccc(OCC)cc2)c1C#N | ?
CC(C)C(NS(=O)(=O)c1cccc2nsnc12)C(=O)N1CCc2ccccc2C1 (stereo not drawn) | -3.7%
COc1ccccc1Cn1nnc2c(=O)[nH]c(C3CCN(C(=O)c4ccc(C)cc4)CC3)nc21 | -5.7%
COc1ccc(CCNC(=O)C2(C)CCC(=O)N2Cc2ccc3c(c2)OCO3)cc1OC (stereo not drawn) | -6.9%
c1ccc(OCCOc2ncnc3sccc23)cc1 | -4.6%

Five compounds out of the list, ordered by SMILES length, low to high.
Compound | HSD17B inhib
CCOc1ccc(S(=O)(=O)NCc2ccco2)c2ccccc12 | -11.5%
CCC(=O)N1CCN(c2ccccc2NC(=O)COc2cc(C)ccc2C(C)C)CC1 | -6.0%
O=C(NCc1ccco1)C(Cc1ccccc1)N1C(=O)C2C3C=CC(C3)C2C1=O (stereo not drawn) | -12.0%
COc1ccccc1Cn1nnc2c(=O)[nH]c(C3CCN(C(=O)c4ccc(C)cc4)CC3)nc21 | -5.7%
O=C(O)c1c2c(nc3ccc(S(=O)(=O)N4CCC(C(=O)N5CCCCC5)CC4)cc13)CCCC2 | -4.4%

(listing goes on)
Compound | HSD17B inhib
CCCn1c(=O)c(C(=O)NCc2ccncc2)c(O)c2ccccc21 | 1.8%
COc1ccccc1OCc1ccc(C(=O)NC(C)(C)C)o1 | -12.8%
Cc1[nH]nc2nc(SCC(=O)NCC3CCCO3)n(-c3ccc(Br)cc3)c(=N)c12 (stereo not drawn) | -15.0%
COc1ccc2cc3cc(C(=O)NCCN4CCc5ccccc5C4)oc3nc2c1 | 25.1µM*
CC(=O)Nc1ccc2c(c1)C(=O)N(C1CCCCC1)C2=O | 3.98µM*
c1ccn2c(SCc3cn4ccsc4n3)nnc2c1 | 10.7%
Cn1c(SCC(=O)NCc2ccc(F)cc2)nc2ccccc21 | -6.9%
CC(C)CC(=O)Nc1ccccc1N1CCN(C(=O)c2ccccc2)CC1 | -16.0%
C=CCn1c(=O)c2ccccc2n2c(SCC(=O)N3CCCc4ccccc43)nnc12 | 4.8%
O=S(=O)(NCc1ccccn1)c1ccc(F)cc1 | -4.9%
Cn1c(CNc2ccccc2)cc(=O)n(C)c1=O | 7.3%
O=C(NC1(C(F)(F)F)NC(=O)N(C2CCCC2)C1=O)C1CC1 (stereo not drawn) | 1.9%
CCC(=O)N1CCc2cc(S(=O)(=O)NCCC(=O)Nc3cc(C)cc(C)c3)ccc21 | 3.0%
O=C(NCCc1ccccc1)C1CCN(S(=O)(=O)c2ccc(-c3nn[nH]n3)cc2)CC1 | 4.1%
CCOC(=O)N1CCc2c(sc3c2C(=O)NC(c2ccc(-c4ccc(Cl)cc4)o2)N3)C1 (stereo not drawn) | -13.6%
CCC(NC(=O)Cn1cnc2c(=O)n(C)c(=O)n(C)c21)c1ccccc1 (stereo not drawn) | -4.2%
COc1nc(N2CCCC2)nc(-n2cc(-c3ccccc3)nn2)n1 | -1.4%
CCn1c(=O)c(C(=O)NCCc2ccccc2)c(O)c2ccccc21 | 20µM*
CCOC(=O)CCNCC1COc2ccccc2O1 (stereo not drawn) | 12.3%
CCn1cc(S(=O)(=O)CC(=O)Nc2ccc(C)cc2)c2ccccc21 | -1.8%
COc1ccccc1CC1(C)NC(=O)N(CC(=O)N2CCc3ccccc3C2)C1=O (stereo not drawn) | -2.0%
O=c1c2ccccc2nc2n1-c1ccccc1CCC2 | -4.6%
COc1ccc(CC(=O)NCc2cn3ccsc3n2)cc1 | 2.0%
COc1cccc(Nc2ncc3ncc(=O)n(Cc4ccc(F)cc4)c3n2)c1 | -27.9%
COc1ccc2[nH]cc(CCNc3ccnc(-c4ccoc4)n3)c2c1 | -4.7%
COc1ccc(OC)c(NC(=O)C2CCCC2)c1 | 2.9%
O=C(c1ccc(Br)o1)N1CCN(C/C=C/c2ccccc2)CC1 | 6.8%
CC1=C(C)CC(C(=O)c2ccccc2)C(C(=O)O)C1 (stereo not drawn) | 11.6%
CSCCC(NC(=O)c1ccc(=O)n(C)n1)c1nc2ccccc2[nH]1 (stereo not drawn) | -2.0%
COc1ccc(S(=O)(=O)N2CCC(C(=O)N3CCCC3)CC2)cc1Cl | 7.8%
Cc1cc2nc(C)n(CCCN)c2cc1C | -4.6%
COCCCn1cnc2oc3nc4ccccc4nc3c2c1=O | ?
CCCCNC(=O)c1ccccc1C(=O)NCCCC | 13.6%
COc1ccc(OC)c(CCNC(=O)CN2C(=O)CC(C)(C)S(=O)(=O)c3ccccc32)c1 | 4.5%
COc1ccc(CNC(=O)C2CCN(c3nccs3)CC2)cc1 | -0.3%
CCN(Cc1ccccc1)S(=O)(=O)c1ccc(S(=O)(=O)N2CCN(C)CC2)cc1 | 1.6%
O=C(CCS(=O)(=O)c1ccc(Cl)cc1)N1CCN(c2ccccc2F)CC1 | -1.5%
CCOC(=O)c1oc2ccccc2c1CN1CCOCC1 | -9.3%
CC(CCc1ccccc1)NC(=O)c1ccc(Br)o1 (stereo not drawn) | -12.8%
O=C(O)CSc1nnc(-c2cccnc2)n1Cc1ccccc1 | 13.4%
CC(C)CNc1cc(Cl)c(S(=O)(=O)NCC(C)C)cc1C(=O)O | 2.2%
Cc1cc(Cl)c(S(=O)(=O)NCc2ccncc2)cc1OCC(N)=O | 5.2%
Cc1ccc(S(=O)(=O)N(C)CCCC(=O)N2CCN(C=O)CC2)cc1 | -4.1%
CSc1ccc(-c2nnn(CC(=O)NCc3ccccc3)n2)cc1 | 5.3%
Cc1cc(C)n(Cc2nc3ccccc3n2C)n1 | -2.1%
Cc1cccc(CNc2ncnc3ccc(-c4cccnc4)cc23)c1 | 31.6µM*
COC(=O)[C@@]1(Cc2ccccc2)[C@H]2c3cc(C(=O)N(C)C)n(Cc4ccccn4)c3C[C@H]2CN1C(=O)c1ccccc1 | -20.2%
CCOC(=O)CN(C(=O)CSc1nnc(-c2cccc(OC)c2)o1)c1ccc(F)cc1 | -18.3%
O=C(C1CCCO1)N(Cc1ccccc1)c1ccccc1 (stereo not drawn) | -15.9%
O=C(c1oc2ccccc2c1N1CCCCC1)N1CCCCC1 | -4.1%

Next section.
Compound | HSD17B inhib
Cc1ccc(-n2nc(C)c3c2OC(N)=C(C#N)C3c2ccoc2)cc1 (stereo not drawn) | -16.2%
CCOCCCNC(=O)C1CCN(S(=O)(=O)N(CC(C)C)CC(C)C)CC1 | 2.6%
O=C(N1CCN(Cc2ccccc2)CC1)C12CC3CC(CC(C3)C1)C2 | 4.5%
C=CCn1c(/N=C/c2ccc(N(C)C)cc2)nc2ccccc21 | -5.5%
CC(C)(CC(=O)N1CCN(c2ccc(Cl)cc2)CC1)CC1=NS(=O)(=O)c2ccccc2N1 | -5.0%
CCCN1C(=O)SC(CC(=O)Nc2ccccc2)C1=O (stereo not drawn) | 4.3%
O=C(NCc1ccc(Cl)cc1)c1cc(-c2ccco2)on1 | 5.9%
Cc1cc2ccccc2c(=O)n1CC(=O)NC1CCCCCC1 | ?
COC(=O)c1noc(-c2ccc(OC)cc2)n1 | 12.4%
Cc1ccnc(NS(=O)(=O)c2ccc(NC(=O)C3CCCNC3=O)cc2)n1 (stereo not drawn) | 4.6%
O=C(COC(=O)CNC(=O)c1ccco1)NCCN1C(=O)CSC1=O | 1.3%
COC(=O)c1sc2ccccc2c1NC(=O)c1cccs1 | 53.6%[activator]
N#C[C@H](c1ccccc1)N1CCCN([C@@H](C#N)c2ccccc2)C1c1ccccc1O (stereo partly drawn) | -1.6%[11.4 µM]
CCC(=O)NC1(C(F)(F)F)C(=O)NC(C)=C1C#N (stereo not drawn) | 1.5%
Cc1ccc(NC(=O)CS(=O)CC(=O)N(C2CCCC2)C(C)C(=O)NC2CCCCC2)cc1 (stereo not drawn) | -1.9%
CC1CCC(n2c(=S)[nH]c3ccccc3c2=O)CC1 (stereo not drawn) | 4.6%
CSc1cc(C)nc(NC(C)=O)n1 | 12.9%
CCOC(=O)C1=C(C)N=c2s/c(=C3\C(=O)Nc4ccccc43)c(=O)n2C1c1ccc2c(c1)OCO2 (stereo not drawn) | -26.9%
O=C(CCCOc1ccc(Cl)cc1)Nc1nncs1 | 4.9%
CCC1=C(OC(=O)N(CC)CC)N2C(=O)OC(=NCC3CC3)[C@]2(Cc2ccccc2)[C@H]2C1=CC[C@H]1C(=O)NC(=O)[C@H]12 | -5.8%

Bioassay records from PubChem BioAssay.

An excerpt. The share of hits here may be higher or lower than overall.
